Screens: PubChem BioAssay, National Center for Advancing Translational Sciences (NCATS)
Cruzain inh Det = cruzain (T. cruzi) inhibition with detergent | 0.43% of 200,000 active | Potency, µM, for the others: max response, negative = inhibition, actives largely listed as inhibitors | purified cruzain, Z-FR-AMC fluorescence, 0.01% Triton | AID 1478;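 further: plate controls were neutral wells for no effect and buffer without enzyme for full effect; nearly all actives have a fitted effect of over 40% in size; top concentration of the series not given in the record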
Target sequence (P25779 123-467 limits assumed): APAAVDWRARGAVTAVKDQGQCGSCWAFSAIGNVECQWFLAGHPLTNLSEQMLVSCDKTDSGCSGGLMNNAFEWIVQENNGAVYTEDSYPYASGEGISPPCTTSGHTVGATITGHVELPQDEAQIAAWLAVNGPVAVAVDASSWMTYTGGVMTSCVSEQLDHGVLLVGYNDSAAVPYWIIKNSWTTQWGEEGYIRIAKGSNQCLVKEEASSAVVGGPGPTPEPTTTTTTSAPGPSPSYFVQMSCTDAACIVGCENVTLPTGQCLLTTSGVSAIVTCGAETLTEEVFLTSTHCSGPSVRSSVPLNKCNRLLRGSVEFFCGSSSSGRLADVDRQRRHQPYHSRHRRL
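Steps: dispense cruzain (1.5 nM final) in acetate buffer pH 5.5 with DTT and 0.01% Triton X-100; pin-transfer compounds; incubate 15 min RT; add Z-FR-AMC (2 uM final); read fluorescence every 30 s, using the 60 s intensity change.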
Marburg entry inh = blocks Marburg virus binding to or entry into cells. Marburg virus pseudotyped entry inhibition, cell reporter; control for the full effect not named in the record; about a third of the inactives were read at about 46 µM. Potency, µM (doses to about 37.8 µM), for inactives: at the top dose activity change, negative = inhibition, hits mostly inhibitors. 1.8% of 300,000 active; active = well fitted inhibition curve with a large enough effect; inconclusive = small, poorly fitted or top-dose-only effect, or effect the other way; inactive = flat fitted curve, though single readings scatter; tested in HEK293 cells; about a fifth of its hits are not listed in these tables; further: on the % scale 0 is the no-effect control and ±100 the full control effect; luciferase read-out
NS1 inh = inhibitors of influenza NS1 protein function; S. cerevisiae slowed by influenza A NS1, growth recovery by OD600; Potency, µM (highest dose often 46.1 µM), inactives show at the top dose activity, positive = more growth; 0.4% of 270,000 active; active means well fitted rising curve with a large enough effect; inconclusive means small, poorly fitted or top-dose-only effect; inactive means no such curve, though single readings can be large or run the other way; further: nearly all actives have a fitted effect of over 50% in size
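In this qHTS, NS1 from influenza A is expressed in budding yeast, where it slows growth. Cells are switched from glucose to 2% galactose medium (pH 6.0, -URA), treated with compound, and growth recovery is read at OD600.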
RE007 growth inh = less growth of the S. pombe RE007 Vpr strain; S. pombe RE007 Vpr strain, BacTiter-Glo ATP luminescence, 24 h; control for the full effect not named in the record; Potency, µM (series often up to 92.2 µM), inactives show at the top dose activity change, negative = less growth; 0.21% of 360,000 active; active = well fitted falling curve with a large enough effect; inconclusive = small, poorly fitted or top-dose-only effect; inactive = no such curve, though single readings can be large or run the other way;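 further: on the % scale 0 is the no-effect control and ±100 the full control effect; nearly all actives have a fitted effect of over 50% in size; the assay follows cell death caused by Vpr and the record does not say whether a fall means rescue or toxicity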
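Fission yeast RE007 carrying one integrated HIV-1 vpr copy, seeded at OD 0.01 in PMG+AL medium with 23 nL pinned compound. Grown 24 h at 30 degrees; viability read by BacTiter-Glo luminescence after 5 min.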
Cruzain inh noDet = blocks cruzain activity in detergent-free assay | Potency, µM, for the others: max response, negative = inhibition, most hits filed as inhibitors | 2.3% of 200,000 active | AID 1476 | purified cruzain, Z-FR-AMC fluorescence, no detergent | P25779;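 further: plate controls were enzyme without inhibitor for no effect and buffer without enzyme for full effect; nearly all actives have a fitted effect of over 40% in size; top concentration of the series not given in the record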
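Detergent-free condition (0.00005% Triton X-100) in acetate buffer pH 5.5 with DTT. 1.5 nM enzyme and compound were pre-mixed 15 min, then 2 uM Z-FR-AMC substrate added; reaction progress from fluorescence change between first and third reads (60 s).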
LASV entry inh = Lassa virus entry inhibition; Lassa virus pseudotype entry inhibition, cell reporter; control for the full effect not named in the record; Potency, µM (doses to about 37.9 µM), inactives show at the highest dose activity change, negative = inhibition, usual class: inhibitors; 1.2% of 300,000 active; active means well fitted inhibition curve with a large enough effect; inconclusive means small, poorly fitted or top-dose-only effect, or effect the other way; inactive means flat fitted curve, though single readings scatter; tested in HEK293 cells; further: on the % scale 0 is the no-effect control and ±100 the full control effect; nearly all actives have a fitted effect of over 50% in size; luciferase read-out
SARS PLpro yeast = inhibitors of SARS-CoV papain-like protease in yeast; Potency, µM (doses to about 32.9 µM), for inactives: at the top dose activity, positive = growth rescue; 0.19% of 330,000 active; S. cerevisiae expressing SARS-CoV PLpro, growth rescue; control for the full effect not named in the record; active means well fitted rising curve with a large enough effect; inconclusive means small, poorly fitted or top-dose-only effect; inactive means no such curve, though single readings can be large or run the other way; further: 0% is about no effect; nearly all actives have a fitted effect of over 55% in size; growth read by luminescence after 48 h
StopGo reporter = FMDV 2A StopGo reporter, luciferase signal. 1.2% of 410,000 active. AID 1159524. Potency, µM (doses to about 57.9 µM), inactives show at the top dose signal change, negative = less light. human cells with a luciferase reporter of 2A StopGo recoding; control for the full effect not named in the record; active = well fitted falling curve with a large enough effect; inconclusive = small, poorly fitted or top-dose-only effect; inactive = no such curve, though single readings can be large or run the other way; tested in HEK293T cells; further: on the % scale 0 is the no-effect control and ±100 the full control effect; nearly all actives have a fitted effect of over 45% in size; luciferase light after 4 h
* marks the source's active call; other numbers are inactive results; ? = inconclusive; . = not tested or not shown; & = joins results of further samples; [ ] = another dose, or the depositor's remark. Unless noted, the call rests on the fitted dose curve; in most records, active means well fitted curve in the direction sought with a large enough effect; inconclusive means small, poorly fitted or top-dose-only effect, or another doubt; inactive means no such curve, though single readings can be large; an effect the other way counts as inactive or inconclusive. Potency means the concentration at half of the fitted maximal effect. Not a hit list; 4.7% or so of the library scored in one or more.

SMILES	Cruzain inh Det	Marburg entry inh	NS1 inh	RE007 growth inh	Cruzain inh noDet	LASV entry inh	SARS PLpro yeast	StopGo reporter
COc1ccccc1NC(=O)Cn1cnc2c(oc3ccccc32)c1=O	-0.1%	.	-14%	16%	6%	.	0%	1%
CC1=C(C(=O)N2CCCCC2)C(c2cccs2)NC(=O)N1 (stereo unspecified)	3.0%	20%	-1%	-3%	1%	?	-1%	7%
COCc1ccc(CN2CCCC(CO)(Cc3ccccc3)C2)o1 (stereo unspecified)	.	-19%[46.1 µM]	1%	11%	.	-7%[46.1 µM]	0%	-6%
COc1ccc(N2CCN(C(=O)c3ccc(N4C(=O)NC5CC4(C)Oc4ccccc45)cc3)CC2)cc1 (stereo unspecified)	-0.1%	-17%	-2%	0%	?	?	2%	-3%
Cc1cc2ccccn2c1C(=O)c1ccc([N+](=O)[O-])cc1[N+](=O)[O-]	.	6%[46.1 µM]	5%	4%	.	1%	1%	-26%
CCOc1ccc(NC(=O)C2CCC(CNc3c(N4CCOCC4)c(=O)c3=O)CC2)cc1 (stereo unspecified)	5.2%	.	-2%	-2%	14%	.	-4%	6%
COC(=O)CSc1nnc2cc(C)c3ccccc3n12	.	-2%[46.1 µM]	-42%	-13%	.	0%	0%	-12%
CCc1ccccc1Nc1nc(-c2cccnc2)cs1	.	.	-77%	-7%	.	.	-15%	29%
CCOCCCNC(=O)C(Cc1ccccc1)NC(=O)c1ccco1 (stereo unspecified)	-0.1%	?	-3%	9%	4%	2%	0%	-21%
CCC(=O)OC1CC(C)N(C(=O)c2ccccc2)c2ccc(C)cc21 (stereo unspecified)	1.6%	?	-5%	15%	13%	-12%	-4%	?
COC(=O)c1ccc2c(c1)C(=O)N(C1CCCCC1)C2=O	0.6%	16%	-16%	-13%	0%	8%	1%	-16%
CCSc1nc2sc3c(c2c(=O)n1-c1ccc(OC)cc1)CCN(C)C3	.	?	-3%	0%	.	5%	0%	-6%
COC(=O)Cn1cc(C(=O)C2CC2)c2ccccc21	6.2%	1%	-7%	8%	1%	30%	0%	16%
C=CCNc1ncnc2ccccc12	1.5%	-5%	-7%	-18%	-1%	1%	-13%	.
CC(C)c1ccc(C2/C(=C(/O)c3ccc(F)cc3)C(=O)C(=O)N2CCCN2CCOCC2)cc1 (stereo unspecified)	.	.	15%	-3%	.	.	-1%	10%
COc1ccccc1NC(=S)N(Cc1cccs1)C1CCCC1	.	?	.	-8%	.	-27%	3%	-13%
COc1cccc(CC(=O)OC(C)C(=O)Nc2ncc(Cl)cc2Cl)c1 (stereo unspecified)	.	-23%[46.1 µM]	.	-16%	.	3%	3%	3%
CCOC(=O)c1c(C)[nH]c(C)c1C(=O)COC(=O)/C=C/c1ccc(Cl)cc1	-10%	4%	-14%	?	2%	?	-42%	-24%
CC(C)(C)c1ccc(C(=O)N2CCN(c3ccc(N4CCOCC4)nn3)CC2)cc1	.	10%	.	-2%	.	-4%	-1%	?
Cc1ccc(-c2cc3nc(-c4ccccc4)cc(N4CCOCC4)n3n2)cc1	-7.4%	?	?	-12%	?	4%	-9%	?
O=C1NC(=S)NC1Cc1ccc(O)cc1 (stereo unspecified)	.	-12%[46.1 µM]	.	-2%	.	5%[46.1 µM]	.	15%
CCOC(=O)/C=C1\CC(=O)Nc2cc(C)c(C)cc2N1	4.9%	-2%	4%	2%	5%	-5%	.	19%
c1cc(-c2ccncc2)ccn1	0.9%	4%&4%	-7%	0%	-5%	-2%	-2%	-16%
O=C(Nc1ccccc1Cl)c1ccc2ccccc2c1	.	.	-2%	-6%	.	.	1%	1%
O=C1C2CCN(CC2)C1Cc1ccc(OCc2ccccc2)cc1 (stereo unspecified)	.	?	-1%	21%	.	4%	0%	42%[activator]
CN(CC(=O)NC1CCN(Cc2ccccc2)CC1)S(=O)(=O)c1ccc2c(c1)c(=O)n(C)c(=O)n2C	.	5%[46.1 µM]	.	-3%	.	4%[46.1 µM]	0%	-7%
O=C1c2cccc3cccc(c23)C(=O)N1c1ccccc1Cl	.	.	-5%	2%	.	.	2%	-9%
CC1=C(C(=O)Nc2ccc(C)cc2C)C(c2cccs2)n2nc(SCc3ccccc3Cl)nc2N1 (stereo unspecified)	-2.3%	-1%[46.1 µM]	.	.	-6%	-1%[46.1 µM]	.	-27%
CC(=O)Nc1ccc(NC(=O)COC(=O)c2ccccc2SCC(=O)N2CCCC2)cc1	.	5%	.	5%	.	?	-3%	-22%
O=C(COC(=O)c1cccc(C(F)(F)F)c1)NCc1ccc(Cl)cc1	-1.3%	17%	9%	-15%	-3%	0%	-13%	-3%
O=Cc1cnc(N2CCN(Cc3ccccc3)CC2)s1	.	12%[46.1 µM]	6%	4%	.	-15%[46.1 µM]	2%	-13%
Cn1c(=O)c(C(=O)NNC(=O)c2ccc(Br)cc2)c(O)c2ccccc21	.	-17%[46.1 µM]	-91%	28µM*	.	?	0%	-27%
CC(C)COc1nc2ccccc2c(=O)n1OCC(=O)O	-4.9%	16%	2%	0%	2%	3%	5%	1%
CN1CCN(c2nc(-c3ccccc3)nc(-c3ccc(F)cc3)c2C#N)CC1	.	11µM*	.	-5%	.	-13%[46.1 µM]	0%	-12%
Cc1ccc(N=Nc2c(O)[nH]c3ccc(F)cc23)cc1	.	?	-3%	7%	.	-7%	0%	42%[activator]
CCOc1ccc(-c2c(C(=O)N/N=C/c3ccc(C)o3)nnn2-c2nonc2N)cc1	.	.	10%	1%	.	.	-14%	0%
C=C(C)C1CC=C(C)/C(=N/NC(=O)COc2ccccc2Cl)C1 (stereo unspecified)	-9.4%	-7%	9%	-1%	3%	-20%	-25%	-3%
Cn1c2ccccc2c2cc(/C=N/NC(=O)c3cc(O)cc(O)c3)ccc21	.	?	-42%	-1%	.	11%[46.1 µM]	?	-22%
COc1ccc(-c2n[nH]c(C)c2-c2ccc(Cl)cc2)c(O)c1	-13%	-14%	-135%	?	2%	?	-27%	?
O=C1N(Cc2cccnc2)C[C@@H]2C[C@@H](c3cccc(Oc4ccccc4)c3)N3CCC[C@@]123	.	.	10%	0%	.	.	-5%	?
CN(C)CCCn1c(N)c(C#N)c2nc3ccccc3nc21	.	-6%[14.2 µM]	1%	-10%	.	-7%	1%	0%
Cc1cc(C)cc(OCC(O)CN2CC(C)OC(C)C2)c1 (stereo unspecified)	.	-14%	-8%	-4%	.	1%	-7%	-20%
O=c1nc2ccccc2c2n1CC(CN1CCN(c3ccc(F)cc3)CC1)N2 (stereo unspecified)	-4.5%	7%	-3%	-11%	2%	-1%	1%	-36%
COC(=O)[C@H]1O[C@@H](c2cc(OC)c(C)c(OC)c2OCc2ccccc2)[C@H](C)[C@@H]2O[C@]12C	-3.2%	-6%[14.2 µM]	.	.	3%	-3%[14.3 µM]	.	.
CCCNC(=O)c1cccc(Br)c1	.	?	.	1%	.	-10%	-2%	-20%
CCCCCCCCCc1nc2sc3c(c2c(=O)n1NC(=O)c1ccc([N+](=O)[O-])cc1)CC(C)(C)OC3	-3.6%	?	19%	-7%	-6%	-1%	-30%	-20%
CCOc1ccccc1C(=O)N1CCCCC1CCN1CCOCC1 (stereo unspecified)	-0.9%	11%[46.1 µM]	.	.	-16%	15%[46.1 µM]	.	-2%
CC(Oc1ccccc1)c1ccnc2nc(N3CCOCC3)nn12 (stereo unspecified)	.	0%[46.1 µM]	-3%	17%	.	29%[46.1 µM]	0%	-7%

Part of the list above, bar-delimited.
SMILES | Cruzain inh Det | Marburg entry inh | NS1 inh | RE007 growth inh | Cruzain inh noDet | LASV entry inh | SARS PLpro yeast | StopGo reporter
CCCNC(=O)c1cccc(Br)c1 | . | ? | . | 1% | . | -10% | -2% | -20%
CCCCCCCCCc1nc2sc3c(c2c(=O)n1NC(=O)c1ccc([N+](=O)[O-])cc1)CC(C)(C)OC3 | -3.6% | ? | 19% | -7% | -6% | -1% | -30% | -20%

(cont.)
SMILES	Cruzain inh Det	Marburg entry inh	NS1 inh	RE007 growth inh	Cruzain inh noDet	LASV entry inh	SARS PLpro yeast	StopGo reporter
COc1cc(/C(C)=N\NC(=O)CSc2nc3ccccc3n2C)ccc1O	.	?	-2%	-10%	.	?	-1%	4%
Cc1cc(C)cc(C(=O)NC2CC(C)(C)NC(C)(C)C2)c1	.	8%	1%	-9%	.	-5%	-9%	1%
O=C(O)C1CCCCN1C(=O)c1ccc(S(=O)(=O)N2CCCCCC2)cc1 (stereo unspecified)	.	0%	.	31%	.	-5%	-9%	-8%
NC(=O)Cn1cc(C(=O)c2cccs2)c2ccccc21	-3.4%	20%	3%	5%	-2%	-1%	5%	13%
O=C(CCN1C(=O)c2ccccc2C1=O)C1=NN[C@@H]2C(=O)N(c3ccc(F)cc3)C(=O)[C@H]12	1.7%	6%	15%	19%	0%	?	-9%	-16%
Cc1csc(NC(=O)NCC2CCCC(CNC(=O)Nc3nc(C)cs3)C2)n1 (stereo unspecified)	.	?	8%	32%	.	19%[46.1 µM]	5%	12%
Cc1ccsc1C(=O)NNC(=O)c1cccc(S(=O)(=O)N2CCCC2)c1	.	7%	.	-1%	.	19%	-5%	-2%
COC(=O)c1sccc1NC(=O)CCC1CCCC1	0.7%	19%	-65%	-1%	0%	-13%	-9%	3%
O=C(CN(Cc1ccccc1)S(=O)(=O)c1ccccc1)N1CCOCC1	5.3%	-14%	2%	1%[3.69 µM]	9%	2%	-1%	-21%
CS(=O)(=O)N(CC(=O)NCc1ccco1)c1cc(C(F)(F)F)ccc1Cl	1.5%	17%	-13%	0%	-1%	4%	-1%	.
Cc1ccc(C2(c3ccc(C)cc3)NC(=O)N(Cc3c(C)noc3C)C2=O)cc1	-2.5%	?	?	15%	-6%	?	-3%	?
Cc1c(OC(C)C(=O)NCC2CCC(C(=O)O)CC2)ccc2c(-c3ccccc3)cc(=O)oc12 (stereo unspecified)	.	.	?	-12%	.	.	-1%	-5%
Cc1cc(N2C(=O)C3CC=CCC3C2=O)cc(C)c1Br (stereo unspecified)	-7.2%	8%	-3%	-17%	-7%	-2%	17%	0%
COc1cc(/C=C2\N=C(c3ccccc3)NNC2=O)cc(OC)c1OC	.	?	-3%	43%	.	?	0%	3%
